AID504770: E. coli YBA685 growth inhibition, screen for V. cholerae RctB inhibitors; E. coli YBA685 rctB-dependent plasmid, OD600 growth, 3 h; hits give low values; z-score (test concentration not listed); 130,000 tested, 0.27% active;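 active = z-score under -2 on both plates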;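 also: wells of about 30 µL received 100 nL stock; score is relative to mean and SD of the test wells; the first replicate is given; strong numbers were not always called active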
Ba CapD inh: inhibitors of Bacillus anthracis CapD enzyme; 140,000 tested, 0.23% active; purified CapD enzyme, fluorescence intensity read-out; hits give low values; some hits fall short of the stated cut; z-score (no concentration beside the values); AID 492967;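 active = z-score under -4 in either of two replicates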;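 also: stock transfer was 100 nL into about 40 µL; score is relative to mean and spread of the plate; one replicate is shown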
Numbers without * were called inactive; . = no result given.

SMILES | AID504770 | Ba CapD inh
O=C(CC1N=C2c3ccccc3N=C(SCc3ccc(F)cc3)N2C1=O)NCc1ccco1 (stereo not drawn) | -0.65 | 23
Cc1ccccc1C1NC(c2ccccc2C)C(C)C(=O)C1C (stereo not drawn) | -0.55 | 0.14
CCOC(=O)c1cccc(NC(=O)CNS(=O)(=O)c2ccc3nc(C)sc3c2)c1 | 0.45 | 0.68
Cn1c(=O)c(=O)n(C)c2cc(S(=O)(=O)N3CCCC3C(=O)NCc3cccs3)ccc21 (stereo not drawn) | 0.25 | 0.84
CCCCC(C(=O)O)N1C(=O)C2C3c4ccccc4C(c4ccccc43)C2C1=O (stereo not drawn) | . | -0.33
O=C(c1ccc2c(=O)n(Cc3ccc4c(c3)OCO4)c(=S)[nH]c2c1)N1CCN(Cc2ccc3c(c2)OCO3)CC1 | . | -0.56
CCOC(=O)c1ccc(-n2sc3c(c2=S)-c2cc(C)ccc2N(C)C3(C)C)cc1 | . | 0.78
COc1ccc(/C=C2\C(=O)NC(=O)N(c3cccc(C)c3)C2=O)c(OC)c1OC | . | 0.025
O=c1oc2ccccc2n1CCn1c2ccccc2c2nc3ccccc3nc21 | -0.3 | 0.08
CC1=NN(c2cc(Cl)ccc2Cl)C(=O)/C1=C\c1cccn1-c1ccc(S(N)(=O)=O)cc1 | . | -0.64
c1ccc(-c2cnnc(N3CCCC3)n2)cc1 | -1 | -0.85
O=C1CCCc2c1nc(-c1ccccc1)n2O | . | 3.9
COC(=O)c1cc2sc(Cl)cc2n1CC(=O)Nc1ccc(C)c(C)c1 | 0.7 | 1.2
CSc1c(-c2ccc(Cl)cc2)[nH]c2ccccc12 | 1.1 | 64
COc1cccc2c(=O)n(CC(=O)NCc3ccccc3)ccc12 | 1.9 | -0.72

Other records follow:
SMILES | AID504770 | Ba CapD inh
S=c1[nH]nc(Cn2nnc3ccccc32)o1 | -0.2 | 1.1
COC(=O)c1c(C)oc(C)c1S(=O)(=O)N(Cc1ccccc1)C(C)C | -0.3 | -1.5
CC(C)(C)OC(=O)N1CCC(C(=O)O)CC1 | -0.05 | 0.12
CCOC(=O)C1CCN(c2nnnn2-c2ccccc2)CC1 | 1.7 | .
CCS(=O)(=O)Nc1ccc(C2=NN(S(=O)(=O)CC)C(c3ccccc3)C2)cc1 (stereo not drawn) | -0.25 | .
CC1(C)CC(=O)C2=C(C1)N(c1c(F)cccc1F)C(N)=C(C#N)C2c1ccsc1 (stereo not drawn) | -0.4 | -0.17
CC(C)n1ncc2cc(N)cnc21 | -0.35 | .
COCC(C)n1c(C)cc(C(=O)CSc2ncccn2)c1C (stereo not drawn) | -0.2 | .
COc1ccc(C2=NN(C(=O)CSc3nnc(CNC(=O)c4ccccc4OC)n3C)C(c3ccc(C)cc3)C2)cc1 (stereo not drawn) | . | 0
CCOC(=O)C1=C(N)c2ccccc2CC12CCCCC2 | -0.65 | -0.6
N#Cc1nc(-c2ccccc2)oc1NCCCN1CCOCC1 | -0.45 | 40
Clc1ccc(-c2nc(-c3ccccc3)no2)cc1 | -1.4 | 0.015
C=CCNC(=O)c1cccc2c1-c1ccccc1C2=O | 2 | -1
CC1CCN(S(=O)(=O)c2ccc(Cl)s2)CC1 | -0.65 | 0.075
CC(=S)c1ncc(C(F)(F)F)cc1N(C)C | . | -1.7

Other records follow.
SMILES | AID504770 | Ba CapD inh
CCC(CO)Nc1nc(C)nc2sc3c(c12)CCCC3 (stereo not drawn) | 0.4 | 0.1
O=C(Nc1nc2ccccc2s1)c1cccn(OCc2ccccc2)c1=O | 0.3 | -0.38
CCOC(=O)[C@@H]1CSC(c2ccc(OC)c(OC)c2)N1 (stereo partly drawn) | -0.8 | -0.04
O=C(OC[C@@H]1CCCN2CCCCC12)c1ccccc1 (stereo partly drawn) | -0.55 | 0.17
Cc1cc(C)n(CCCN)n1 | -0.1 | 0.99
O=C(O)c1ccccc1S(=O)c1ccc(Cl)cc1 (stereo not drawn) | 1.2 | 0.65
CNc1nc(-c2ccccc2)[n+](-c2ccc(C)cc2)s1 | . | -0.43
O=C(C/C=N\OCc1ccc(Cl)cc1Cl)Nc1ccc(F)cc1F | . | -0.17
CCn1cc(/C=N/O)c(C)n1 | -0.4 | 0.3
O=C(CSc1nc2ccccc2n1-c1ccccc1)c1ccc[nH]1 | 0.9 | .
CC1(C)CC(=O)C2=C(C1)Oc1ccccc1C2CC(=O)c1cccs1 (stereo not drawn) | -0.1 | -0.6
CC1(C)C(=O)Nc2ccccc2N1C(=O)COC(=O)c1ccccn1 | 0.1 | .
Cc1cc(C)n(-c2ccc(C(=O)NCCc3c[nH]c4ccccc34)cc2)n1 | -0.4 | 0.08
Cc1ccccc1Nc1nnc(SCC(=O)NC(C)(C#N)C(C)C)s1 (stereo not drawn) | 0.05 | .
CC(C)(C)SCCC(=O)N1CCN(c2ncc(C(F)(F)F)cc2Cl)CC1 | -0.2 | 0.2

Next part:
SMILES | AID504770 | Ba CapD inh
O=C(Sc1cccs1)c1cncc(C#Cc2ccccc2)c1 | -1.1 | -0.49
COC(=O)c1sccc1-c1ccc(/C=C(\C#N)S(C)(=O)=O)o1 | -0.3 | 0.71
COC(=O)c1ccc(CN2C(=O)NC(Cc3ccccc3)(Cc3ccccc3)C2=O)o1 | -0.6 | .
CCN1CCCC1CNC(=O)c1nn(C)c2c1CSc1ccccc1-2 (stereo not drawn) | -0.55 | 0.41
CC(=O)Nc1ccc(S(=O)(=O)N(C2=NCC(C)S2)c2ccccc2)cc1 (stereo not drawn) | -0.35 | 0.37
Nc1nnc(SCC(=O)c2cccs2)s1 | 0.05 | .
Cc1nc(CSCC(=O)O)cs1 | 0.85 | .
CNC1CCC(C)CC1 (stereo not drawn) | -0.3 | .
CCc1ccnc(NS(=O)(=O)c2cccs2)c1 | 0.15 | 1.6
O=C1NC(=S)N/C1=C/c1ccc(OCc2ccc(Cl)cc2Cl)cc1 | . | 0.22
O=C1c2ccccc2C(=O)N1CC(O)CN1CCOCC1 (stereo not drawn) | -0.1 | .
Cc1ccc(S(=O)(=O)N2CCN(C(=O)COC(=O)c3ccc(O)cc3)CC2)cc1 | 0.05 | .
N/C(CSc1ccccn1)=N\O | . | -1.1
CCCCC1CC(CSc2ncn[nH]2)OC1=O (stereo not drawn) | 0.05 | -0.55
CN(C)/C=N/c1c(C#N)cnn1-c1ccccc1 | 1.9 | -0.025

The list continues:
SMILES | AID504770 | Ba CapD inh
CC(=O)Nc1ccc(I)cn1 | -1.2 | 0.51
O=c1cc(CSc2nnc(-c3ccccc3)n2Cc2ccc3c(c2)OCO3)nc2sccn12 | 0.3 | .
CC1(C(=O)N2CCCN(c3ncc(C(F)(F)F)cc3Cl)CC2)CCC(C(=O)O)C1(C)C (stereo not drawn) | . | 0.76
N#CC(C#N)=Cc1ccc(N2CCCC2)cc1 | 1.6 | .
OCC(O)C(O)C(O)c1cnn(-c2ccccc2)n1 (stereo not drawn) | -0.85 | -0.71
CN(C)C1c2cccc3cccc(c23)C1NS(C)(=O)=O (stereo not drawn) | -1.4 | 0.35
Cc1ccsc1/C=N/n1cnc2sc(C)c(C)c2c1=O | 0.85 | .
COc1cccc2cc(C(=O)c3ccccc3)oc12 | -1 | -1.2
CCS(=O)(=O)N1CCC(C(=O)N2CCN(c3ccccc3)CC2)CC1 | 0.9 | 0.7
O=C(CCNc1ccc(Cl)c(C(F)(F)F)c1)c1ccccc1 | 2.1 | -0.63
Cc1cc(S(=O)(=O)N2CCOCC2)ccc1OCC(=O)N1CCOCC1 | -0.6 | .
Cc1ccc(C(CCN)c2ccco2)cc1 (stereo not drawn) | 1 | 0.26
COc1ccc(/C=C(/CC(=O)O)C(=O)O)cc1 | -0.35 | 0.28
CCC(=O)c1ccc(OCC(=O)NC2CCCC2)cc1 | 0 | .
O=C(N/N=C/c1ccccc1C(=O)O)c1ccc([N+](=O)[O-])o1 | . | -2

Remaining list, next part.
SMILES | AID504770 | Ba CapD inh
Cc1ccc(C)c(-c2csc(-c3cc4ccccc4oc3=O)n2)c1 | . | 2.6
CCC1CCCCN1S(=O)(=O)c1ccc2c(c1)CCN2C(C)=O (stereo not drawn) | -1.1 | 0.22
CCOC(=O)c1cc(NC(=O)Nc2ccc(C)cc2C)c(C)nc1C | -0.8 | -0.47
Nc1nc(N2CCOCC2)ncc1S(=O)(=O)c1ccc(C(F)(F)F)cn1 | -0.65 | 0.52
CS/C(Nc1ccc(F)cc1)=C(/C#N)C(=O)c1ccco1 | -0.05 | -1.1
CC1(C)COC(Nc2ccc(Cl)c(Cl)c2)=N1 | -0.6 | 0.14
C=CCOC(=O)C1CC=CCC1C(=O)Oc1ccc(F)cc1F (stereo not drawn) | -0.45 | -0.13
COCCn1c(=O)c(=O)n(CC(=O)N2CCc3ccccc32)c2cc(C(F)(F)F)ccc21 | . | 0.71
CC1CCN(c2nc3ccccn3c(=O)c2/C=C2/SC(=S)N(CC3CCCO3)C2=O)CC1 (stereo not drawn) | . | 0.15
N/N=C1\CCCc2c1[nH]c1ccc(F)cc21 | 2 | 2.9
CCOC(=O)N1CCC(=C(C#N)C(=O)Nc2cc(OC)ccc2OC)CC1 | -0.5 | 0.34
COC(=O)c1cc(COC(=O)c2ccccc2Sc2ccccc2C#N)oc1C | 1.3 | .
O=c1c2oc3ccccc3c2[nH]c(=S)n1-c1ccccc1 | 0.3 | -1
Cc1cc(C)c(-c2cc(-c3ccccc3Cl)n[nH]2)c(O)c1 | -0.5 | -0.4
c1ccc(N2CCN(C3CCc4ccccc4C3)CC2)cc1 (stereo not drawn) | -0.45 | 0.45

Other entries follow:
SMILES | AID504770 | Ba CapD inh
S=C1Nc2ccccc2CS1 | -0.45 | .
CCCC(NC(=O)c1ccccc1)c1nc2ccccc2n1Cc1ccc(C(=O)OC)o1 (stereo not drawn) | 0.4 | .
Cc1ccc(S(=O)(=O)Nc2cc3c4c(oc3c3ccccc23)CCC(C(C)(C)C)C4)cc1 (stereo not drawn) | . | 1.1
COC(=O)Cc1nc(-c2ccc(F)cc2)sc1C | -0.55 | 2.3
CCOC(=O)c1cccc(C(=O)NC2=NN(c3ccccc3)C(=O)C2)n1 | . | -0.58
CC(=O)N(C)C1=C(O)c2ccccc2C(=O)C1=O | 0.1 | -0.82
CC(=O)c1ccc(NC(=O)Cn2cnc([N+](=O)[O-])n2)cc1 | . | -0.18
CCC(NCC(O)Cn1c2ccccc2c2ccccc21)C(=O)O (stereo not drawn) | -0.1 | -0.2
O=C1Nc2ccccc2N(O)N1c1cc(-c2ccccc2Cl)no1 | -0.15 | 74
CC(Sc1nc(N)cc(N)n1)C(=O)O (stereo not drawn) | -0.3 | 2.1
COc1cc(NC(=O)c2cc(C)oc2C)cc(OC)c1OC | 0.2 | -0.065
CN(C(=O)Cn1nc(C(F)(F)F)c2c1CCCC2)c1ccccc1 | -0.2 | -0.64
Cc1oc2c(C)c3oc(=O)c4c(c3cc2c1-c1ccccc1)CCCC4 | 0.4 | -0.06
CC(=O)Nc1ccc2nc(NC(=O)c3ccc(S(=O)(=O)N4CCc5ccccc54)cc3)sc2c1 | . | -1.3
O=C(Nc1ccc2sccc2c1)c1ccc(S(=O)(=O)N2CCCC2)cc1 | 0.25 | -0.19

Carrying on:
SMILES | AID504770 | Ba CapD inh
NC(=O)c1cc(-c2ccco2)nc2ccccc12 | 0.25 | 53
CCOC(=O)C1C(=O)C=C(c2ccc(NS(C)(=O)=O)cc2)CC1c1ccco1 (stereo not drawn) | -0.35 | .
COc1cc2c(cc1OC)C1C(C)C(=O)C3=C(CSCC3=O)N1CC2 (stereo not drawn) | 1.1 | 0.48
CCCCn1c(=O)c(-[n+]2ccccc2)c([O-])c2ccccc21 | -0.05 | -0.27
CCCOc1ccc(-c2nc(SCC(N)=O)[nH]c(=O)c2C#N)cc1OC | -0.9 | 4.7
Nc1nc2c(nc(SCc3ccccc3Br)n2C2OC(CO)C(O)C2O)c(=O)[nH]1 (stereo not drawn) | -0.75 | 0.095
Cc1ccc(Sc2cnc(N)nc2C)cc1 | -0.35 | 0.45
Cc1cccc(CNC(=O)CC(CC(=O)C2CC2)c2ccc(Br)cc2)c1C (stereo not drawn) | . | -0.15
CNC(=S)NC(=O)c1ccccc1 | -0.65 | .
CCCc1cc(C(=O)Cc2ccccn2)c(O)cc1O | 1.2 | 2.9
C=CCn1c(O)c(C=NCC)c(=O)[nH]c1=S | 1.6 | -0.48
Cc1cccc(C2OC3(C(=O)c4ccccc4C3=O)C3C(=O)N(c4cccc5ccccc45)C(=O)C23)c1 (stereo not drawn) | . | -0.35
O=c1c2cccnc2n(-c2ccccc2)n1Cc1c(Cl)cccc1Cl | . | 2.9
CC1(C)Cc2ccccc2C2=CC(=O)C(=O)N21 | . | -0.85
O=C(Nc1cccc(-c2nnco2)c1)c1ccc(C(F)(F)F)cc1 | 0.55 | 0.93
NS(=O)(=O)c1ccc(-c2ccc(/C=C3/SC(=S)N(C4CCS(=O)(=O)C4)C3=O)o2)cc1 (stereo not drawn) | . | -2.7

High-throughput results as filed in PubChem BioAssay.
